# Screens from PubChem BioAssay.
# A1 apoptosis 2 – compounds inhibiting A1, read as caspase activation | MEF A1-2A-BIM cells, caspase-Glo luminescence, 3 h; percent of clofoctol response, DMSO zero | caspase activation, % (concentration not given with the values) | 24,000 tested, under 10 active | AID 2465; in the data active = caspase activation above about 5.9%;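 note: wells of about 30 µL received 50 nL stock; the first replicate is given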
#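 Test system – A1-2A-BIM-expressing MEF cells · Input – 2500 cells/well · Medium – RPMI-1640 growth medium with 10% FBS · Compound dosing – 50 nL pinned compound · Timing – 3 h compound exposure at 37 °C · Technique – Caspase-Glo luminescence (DEVD substrate) · Evaluation – Caspase-3/7 activity from luminescence increase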
# * marks the source's active call; other numbers are inactive results.
mol | A1 apoptosis 2
Cc1noc(C)c1NC(=O)Nc1ccc2c(c1)CC(=O)N([C@@H](C)CO)C[C@@H](C)[C@@H](CN(C)C(=O)NC(C)C)O2 | 1.1
Cc1ccc(S(=O)(=O)Nc2ccc3c(c2)C(=O)N([C@@H](C)CO)C[C@H](C)[C@H](CN(C)S(=O)(=O)c2ccc(F)cc2)O3)cc1 | 0.4
C[C@@H]1CN([C@@H](C)CO)C(=O)c2cc(N(C)C)ccc2O[C@@H](C)CCCCO[C@H]1CN(C)S(C)(=O)=O | -0.6
C[C@@H]1CN([C@@H](C)CO)C(=O)c2cccc(NS(=O)(=O)c3cccs3)c2O[C@@H]1CN(C)C(=O)Nc1cccc2ccccc12 | 1.2
C[C@@H]1CCCCO[C@@H](CN(C)CC2CCCCC2)[C@H](C)CN([C@H](C)CO)C(=O)c2cc(NC(=O)NC3CCCCC3)ccc2O1 | 0.6
Cc1ccc(S(=O)(=O)Nc2ccc3c(c2)CC(=O)N([C@@H](C)CO)C[C@@H](C)[C@H](CN(C)S(=O)(=O)c2ccc(F)cc2)O3)cc1 | 0.0
O=C1N(CCS(=O)(=O)c2ccccc2)c2ccccc2[C@H]2OC(c3ccc(OCCCO)cc3)=N[C@@]12CCS(=O)(=O)c1ccccc1 | -0.6
C[C@H]1CN([C@@H](C)CO)C(=O)Cc2cc(NC(=O)Nc3ccc(C(F)(F)F)cc3)ccc2O[C@@H]1CN(C)C(=O)Nc1ccc(F)cc1 | -0.1
CNC[C@@H]1Oc2c(NS(=O)(=O)c3ccc(OC)cc3)cccc2C(=O)N([C@@H](C)CO)C[C@@H]1C | -0.7
Cc1ccc(S(=O)(=O)Nc2ccc3c(c2)C(=O)N([C@@H](C)CO)C[C@@H](C)[C@H](CN(C)S(=O)(=O)c2cn(C)cn2)OCCCC[C@H](C)O3)cc1 | -0.4
C[C@H]1CCCCO[C@H](CN(C)C(=O)Nc2ccccc2)[C@@H](C)CN([C@@H](C)CO)C(=O)c2cc(NC(=O)Nc3ccccc3)ccc2O1 | -0.5
C[C@H]1CN([C@@H](C)CO)C(=O)c2cccc(NS(=O)(=O)c3cn(C)cn3)c2O[C@H]1CN(C)C(=O)Nc1ccc(C(F)(F)F)cc1 | -0.7
Cc1ccc(S(=O)(=O)Nc2cccc3c2O[C@@H](CN(C)S(=O)(=O)c2ccc(Cl)cc2)[C@@H](C)CN([C@@H](C)CO)C3=O)cc1 | 0.4
CC(C)NC(=O)Nc1ccc2c(c1)C(=O)N([C@H](C)CO)C[C@@H](C)[C@H](CN(C)C(=O)c1ccncc1)OCCCC[C@H](C)O2 | -0.1
COc1ccc(CN(C)C[C@H]2OCCCC[C@H](C)Oc3ccc(NC(=O)Nc4cccc5ccccc45)cc3C(=O)N([C@@H](C)CO)C[C@H]2C)cc1 | -1.1
C[C@@H]1CN([C@@H](C)CO)C(=O)c2cc(NS(=O)(=O)c3cccs3)ccc2O[C@H]1CN(C)Cc1ccc(C(=O)Nc2ccccc2N)cc1 | 1.5
C[C@@H]1CCCCO[C@@H](CN(C)C(=O)C2CCCCC2)[C@H](C)CN([C@H](C)CO)C(=O)c2cc(NC(=O)Nc3ccc(F)cc3)ccc2O1 | -0.7
C[C@@H]1CN([C@@H](C)CO)C(=O)c2cc(NC(=O)CCCN(C)C)ccc2O[C@@H](C)CCCCO[C@H]1CN(C)Cc1ccc2c(c1)OCO2 | -0.7
NC(=O)NCC#Cc1ccc2c(c1)[C@]1(C(=O)N2)[C@H](C(=O)Nc2nc3ccccc3s2)[C@H]2C(=O)O[C@H](c3ccccc3)[C@H](c3ccccc3)N2[C@@H]1c1ccccc1OCCO | 0.0
C[C@H]1CCCCO[C@@H](CN(C)Cc2ccc(C(=O)O)cc2)[C@@H](C)CN([C@@H](C)CO)C(=O)c2cc(NC(=O)Nc3cccc4ccccc34)ccc2O1 | 0.0
C[C@@H]1CN([C@H](C)CO)C(=O)c2cccc(NC(=O)NC3CCCCC3)c2O[C@H]1CN(C)S(=O)(=O)c1ccccc1 | 0.3
C[C@@H]1CN([C@H](C)CO)C(=O)Cc2cc(NC(=O)Cc3cn(C)c4ccccc34)ccc2O[C@@H]1CN(C)Cc1ccc(C(=O)O)cc1 | -0.2
C[C@@H]1CN([C@H](C)CO)C(=O)Cc2cc(NS(=O)(=O)c3ccc(Cl)cc3)ccc2O[C@H]1CN(C)S(C)(=O)=O | 0.1
C[C@@H]1CCCCO[C@@H](CN(C)C(=O)NC2CCCCC2)[C@H](C)CN([C@@H](C)CO)C(=O)c2cc(NC(=O)CCCCCC(=O)Nc3ccccc3N)ccc2O1 | -0.7
COc1cc2c(cc1OC)CN(C(=O)[C@H]1[C@@H]3C(=O)O[C@@H](c4ccccc4)[C@@H](c4ccccc4)N3[C@@H](c3ccc(OCCO)cc3)[C@]13C(=O)Nc1ccc(C#CC4=CCCCC4)cc13)CC2 | -0.6
C[C@H](CO)N1C[C@H](C)[C@@H](CN(C)C(=O)Nc2ccccc2)Oc2ccc(NC(=O)Cn3cnnn3)cc2CC1=O | 0.0
Cc1ccccc1S(=O)(=O)N(C)C[C@@H]1OCc2cnnn2CCCC(=O)N([C@H](C)CO)C[C@@H]1C | -0.4
C[C@@H]1CCCCO[C@H](CN(C)C(=O)CCCN(C)C)[C@@H](C)CN([C@@H](C)CO)C(=O)c2cc(NC(=O)C3CCCCC3)ccc2O1 | 0.6
C[C@@H]1CN([C@H](C)CO)C(=O)CCCn2cc(nn2)CO[C@@H]1CN(C)C(=O)C1CCCCC1 | -0.7
C[C@@H]1CCCCO[C@@H](CN(C)C(=O)CCCN(C)C)[C@H](C)CN([C@H](C)CO)C(=O)c2cc(NS(=O)(=O)c3cn(C)cn3)ccc2O1 | 0.4
COc1ccc(S(=O)(=O)N(C)C[C@H]2OCCCC[C@H](C)Oc3ccc(NS(=O)(=O)c4ccc(F)cc4)cc3C(=O)N([C@H](C)CO)C[C@@H]2C)cc1 | 0.1
Cc1noc(C)c1S(=O)(=O)Nc1ccc2c(c1)C(=O)N([C@@H](C)CO)C[C@@H](C)[C@@H](CN(C)Cc1ccc3c(c1)OCO3)OCCCC[C@H](C)O2 | -0.6
C[C@H]1CN([C@@H](C)CO)C(=O)c2cc(NC(=O)Nc3ccc4c(c3)OCO4)ccc2O[C@@H]1CN(C)C(=O)Nc1ccc(F)cc1 | 0.2
C[C@@H]1CCCCO[C@@H](CN(C)S(=O)(=O)c2cccs2)[C@@H](C)CN([C@H](C)CO)C(=O)c2cc(NC(=O)Nc3ccc(C(F)(F)F)cc3)ccc2O1 | -0.2
CC(C)NC(=O)Nc1cccc2c1O[C@H](CN(C)Cc1ccc(Oc3ccccc3)cc1)[C@@H](C)CN([C@H](C)CO)C2=O | 0.7
C[C@H](CO)N1C[C@H](C)[C@H](CN(C)Cc2ccccc2)Oc2ccc(NC(=O)C3CC3)cc2CC1=O | 0.0
CC(C)NC(=O)N(C)C[C@@H]1Oc2ncc(/C=C/c3ccccc3)cc2C(=O)N([C@H](C)CO)C[C@@H]1C | 0.3
C[C@@H]1CCCCO[C@H](CN(C)C(=O)CCC(F)(F)F)[C@@H](C)CN([C@H](C)CO)C(=O)c2cc(NS(=O)(=O)c3ccc(F)cc3)ccc2O1 | 0.2
CNC[C@H]1Oc2ccc(NS(=O)(=O)c3ccc(OC)cc3)cc2C(=O)N([C@@H](C)CO)C[C@@H]1C | -0.6
Cc1ccc(S(=O)(=O)N(C)C[C@H]2Oc3c(NS(=O)(=O)c4ccc(Cl)cc4)cccc3C(=O)N([C@H](C)CO)C[C@H]2C)cc1 | 0.0
C[C@@H]1CN([C@@H](C)CO)C(=O)c2cc(NS(=O)(=O)c3ccc(F)cc3)ccc2O[C@H]1CN(C)Cc1ccc(-c2ccccc2)cc1 | -0.8
C[C@@H]1CCCCO[C@@H](CN(C)C)[C@@H](C)CN([C@@H](C)CO)C(=O)c2cc(NC(=O)Nc3ccc(F)cc3)ccc2O1 | 0.4
C[C@@H]1CN([C@H](C)CO)C(=O)Cc2cc(NS(=O)(=O)c3cccs3)ccc2O[C@@H]1CN(C)C | -0.8
COc1ccc(S(=O)(=O)Nc2ccc3c(c2)C(=O)N([C@@H](C)CO)C[C@@H](C)[C@H](CN(C)C(=O)Nc2ccc(F)cc2)OCCCC[C@@H](C)O3)cc1 | -1.2
C[C@H]1CN([C@@H](C)CO)C(=O)Cc2cc(NC(=O)Nc3cccc4ccccc34)ccc2O[C@@H]1CN(C)C(=O)Nc1ccc(C(F)(F)F)cc1 | -1.4
C[C@H]1CN([C@@H](C)CO)C(=O)c2cc(NS(=O)(=O)c3ccccc3)ccc2O[C@@H]1CN(C)S(=O)(=O)c1cccs1 | 1.3
C[C@@H]1CN([C@@H](C)CO)C(=O)c2cccc(NC(=O)NC3CCCCC3)c2O[C@H]1CN(C)S(=O)(=O)c1ccc(F)cc1 | -1.0
C[C@@H]1CN([C@H](C)CO)C(=O)c2cccc(NC(=O)c3ccncc3)c2O[C@@H]1CN(C)C(=O)Nc1ccc(C(F)(F)F)cc1 | -0.2
CCCCN(CCCC)c1ccc(/C=N/NC(=O)CCCCCCC(=O)OC)cc1 | -0.6
C[C@H]1CCCCO[C@@H](CN(C)C(=O)c2ccncc2)[C@@H](C)CN([C@@H](C)CO)C(=O)c2cc(N(C)C)ccc2O1 | 0.4

# Look-ups from above.
# `C[C@H]1CN([C@@H](C)CO)C(=O)Cc2cc(NC(=O)Nc3ccc(C(F)(F)F)cc3)ccc2O[C@@H]1CN(C)C(=O)Nc1ccc(F)cc1` in A1 apoptosis 2 → -0.1
# `Cc1noc(C)c1NC(=O)Nc1ccc2c(c1)CC(=O)N([C@@H](C)CO)C[C@@H](C)[C@@H](CN(C)C(=O)NC(C)C)O2` in A1 apoptosis 2 → 1.1
# `C[C@@H]1CN([C@@H](C)CO)C(=O)c2cccc(NC(=O)NC3CCCCC3)c2O[C@H]1CN(C)S(=O)(=O)c1ccc(F)cc1` in A1 apoptosis 2 → -1.0

# Going on with the list.
mol | A1 apoptosis 2
Cc1noc(C)c1S(=O)(=O)Nc1ccc2c(c1)C(=O)N([C@@H](C)CO)C[C@H](C)[C@H](CN(C)CC1CCCCC1)OCCCC[C@H](C)O2 | -0.7
COC(=O)N(C)C[C@@H]1OCc2cn(nn2)CCCC(=O)N([C@H](C)CO)C[C@H]1C | -0.9
COc1ccc(CN(C)C[C@H]2OCCCC[C@H](C)Oc3ccc(NC(=O)NC4CCCCC4)cc3C(=O)N([C@@H](C)CO)C[C@@H]2C)cc1 | 2.1
C[C@@H]1CN([C@@H](C)CO)C(=O)c2cc(NC(=O)Nc3ccccc3)ccc2O[C@H]1CN(C)C(=O)NC1CCCCC1 | -0.5
C[C@H](CO)N1C[C@H](C)[C@H](CN(C)Cc2ccncc2)OCCCC[C@H](C)Oc2ccc(NS(=O)(=O)c3ccc(Cl)cc3)cc2C1=O | 0.5
C[C@@H]1CCCCO[C@H](CN(C)C(=O)Nc2ccc(C(F)(F)F)cc2)[C@H](C)CN([C@@H](C)CO)C(=O)c2cc(NS(=O)(=O)c3cn(C)cn3)ccc2O1 | -0.7
C[C@H](CO)N1C[C@H](C)[C@H](CN(C)S(C)(=O)=O)Oc2ccc(NS(=O)(=O)c3ccc(Cl)cc3)cc2C1=O | -1.1
O=C(N/N=C/c1ccc(Br)o1)c1ccccc1O | -3.9
C[C@H]1CN([C@@H](C)CO)C(=O)c2cccc(N(C)C)c2O[C@@H]1CN(C)Cc1ccc(Oc2ccccc2)cc1 | 0.2
COc1ccc(NC(=O)Nc2ccc3c(c2)C(=O)N([C@@H](C)CO)C[C@H](C)[C@H](CN(C)C(=O)Nc2ccc(OC)cc2)O3)cc1 | -0.2
O=C(N/N=C/c1ccccc1O)c1ccccn1 | -11.6
COc1ccc(S(=O)(=O)N(C)C[C@H]2OCCCC[C@@H](C)Oc3ccc(NC(=O)Nc4ccc(C(F)(F)F)cc4)cc3C(=O)N([C@@H](C)CO)C[C@@H]2C)cc1 | -0.2
CC(C)NC(=O)N(C)C[C@@H]1Oc2c(NS(C)(=O)=O)cccc2C(=O)N([C@H](C)CO)C[C@@H]1C | 0.4
CC(C)NC(=O)N(C)C[C@H]1Oc2ccc(N(C)C)cc2CC(=O)N([C@@H](C)CO)C[C@H]1C | -0.7
C[C@H]1CN([C@@H](C)CO)C(=O)Cc2cc(NS(=O)(=O)c3ccc(F)cc3)ccc2O[C@@H]1CN(C)Cc1ccc(-c2ccccc2)cc1 | -0.4
C[C@@H]1CN([C@H](C)CO)C(=O)c2cc(NC(=O)c3ccncc3)ccc2O[C@@H](C)CCCCO[C@H]1CN(C)C | -0.9
C[C@H]1CN([C@@H](C)CO)C(=O)Cc2cc(NC(=O)Nc3ccc(C(F)(F)F)cc3)ccc2O[C@@H]1CN(C)S(=O)(=O)c1ccccc1 | 0.3
CC(C)NC(=O)N(C)C[C@H]1OCc2cn(nn2)CCCC(=O)N([C@H](C)CO)C[C@H]1C | 1.0
Cc1ccc(S(=O)(=O)Nc2ccc3c(c2)C(=O)N([C@@H](C)CO)C[C@@H](C)[C@@H](CN(C)Cc2ccc(C(F)(F)F)cc2)O3)cc1 | 0.1
C[C@@H]1CN([C@H](C)CO)C(=O)Cc2cc(NC(=O)Cc3cn(C)c4ccccc34)ccc2O[C@@H]1CN(C)C(=O)Nc1ccccc1 | 0.6

# Reprinted at random: four records from the list.
mol | A1 apoptosis 2
C[C@@H]1CCCCO[C@@H](CN(C)S(=O)(=O)c2cccs2)[C@@H](C)CN([C@H](C)CO)C(=O)c2cc(NC(=O)Nc3ccc(C(F)(F)F)cc3)ccc2O1 | -0.2
CC(C)NC(=O)Nc1ccc2c(c1)C(=O)N([C@H](C)CO)C[C@@H](C)[C@H](CN(C)C(=O)c1ccncc1)OCCCC[C@H](C)O2 | -0.1
C[C@H]1CN([C@@H](C)CO)C(=O)Cc2cc(NC(=O)Nc3ccc(C(F)(F)F)cc3)ccc2O[C@@H]1CN(C)C(=O)Nc1ccc(F)cc1 | -0.1
C[C@@H]1CN([C@@H](C)CO)C(=O)c2cc(NC(=O)Nc3ccccc3)ccc2O[C@H]1CN(C)C(=O)NC1CCCCC1 | -0.5

# These rows are one share of the data; count on the stated rates, not on these rows.
